Ba CapD inh: Bacillus anthracis CapD inhibitors, primary screen, biochemical, fluorescence intensity; purified CapD enzyme, fluorescence intensity read-out; stronger effect = lower value; some hits fall short of the stated cut; z-score (concentration not given with the values); actives 0.23% (n = 140,000); AID 492967, 2010;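 active = z-score under -4 in either of two replicates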;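 note: stock transfer was 100 nL into about 40 µL; score is relative to mean and spread of the plate; one replicate is shown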
AID504770: growth inhibition of E. coli YBA685, primary screen, V. cholerae RctB inhibitors; actives 0.27% (n = 130,000); E. coli YBA685 rctB-dependent plasmid, OD600 growth, 3 h; stronger effect = lower value; z-score (test concentration not listed);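 active = z-score under -2 on both plates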;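 note: wells of about 30 µL received 100 nL stock; score is relative to mean and SD of the test wells; the first replicate is given; strong numbers were not always called active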
Starred values were filed as active, the others as inactive; / = not tested or not shown; & = joins results of further samples. An excerpt (hit frequency here may not be typical).

structure | Ba CapD inh | AID504770
N#CCCn1cc(C(=O)Nc2ccccc2)c(-c2ccc3c(c2)OCCO3)n1 | / | -1.5
CC(C)(C)NC(=O)Cn1nnc(-c2cccs2)n1 | 1.11 | 0.1
COc1cc(CO)ccc1OCc1ccc(Cl)cc1 | -0.57 | -0.7
NC(=O)CC(=O)c1c(O)c2ccccc2n(-c2ccccc2)c1=O | 1.33 | -1.1
c1ccc(-c2noc(CSc3nnc(C4CC4)n3-c3ccccc3)n2)cc1 | -0.445 | 1.05
O=C(OCCN(C1=NS(=O)(=O)c2ccccc21)c1ccc(Cl)cc1)c1cccs1 | -0.545 | 0.1
CCN(CC)c1ccc2cc(C(=O)NC(C)=O)c(=Nc3ccc(OC)cc3)oc2c1 | -0.12 | /
COC(=O)c1sc(SC)c(C#N)c1-c1cccc(OC)c1 | -0.655 | /
Cc1nc(-c2cccs2)sc1NC(=O)Nc1ccc(Cl)cc1 | 85.3 | 0.7
COC(=O)/C(C#N)=C/c1ccc(OC)cc1 | / | -0.8
COc1ccccc1C1CCN(Cc2ccc(Cl)c(Cl)c2)CC1 | 0.045 | /
COc1cccc(-c2nc3cc(OC)c(OC)cc3c(=O)o2)c1 | -0.76 | 1.3
O=C(CC1Sc2ccc(C(F)(F)F)cc2NC1=O)Nc1ccc(O)cc1 (centres undefined) | -0.755 | -1.2
Cc1nc2ccn(Cc3cccnc3)c(=O)c2cc1C(=O)NCCCc1ccco1 | 28.5 | 0.55
CCCCOc1ccccc1C1C(C(=O)OCC)=CN(Cc2ccc(OC)c(OC)c2)C=C1C(=O)OCC | 56.1 | /
CN(C)S(=O)(=O)c1ccc(S(=O)(=O)N2CCC3(CC2)OCCO3)cc1 | 1.39 | -0.55
CCS(=O)(=O)N1CCC(C(=O)NCc2ccc3c(c2)OCO3)CC1 | / | -0.6
O=C1CN=C(Nc2ccccc2Cl)N1Cc1ccccc1 | / | 1.7
CN1CCN(c2cc(N(C)CCO)c([N+](=O)[O-])c3nonc23)CC1 | -4.25* | /
O=C(c1cccn1-c1ccc(F)cc1)C(F)(F)F | -0.23 | /
Cc1cc(-c2nc(-c3ccc(C(F)(F)F)cc3)no2)n(C)n1 | -0.095 | 0
Cc1n[nH]c(C)c1NC(=O)CN(C)C(=S)NC1CC2CCC1C2 (centres undefined) | / | 0.2
CCOc1cc(C2NS(=O)(=O)N=C3CCCN32)ccc1OCCOc1cccc(C)c1 (centres undefined) | / | 1
O=C(CSC1=NCCc2ccccc21)Nc1ccc(F)cc1F | 0.375 | 0.3
O=C(CSC1=NCCS1)N1CCc2c([nH]c3ccccc23)C1C(F)(F)F (centres undefined) | -0.65 | -0.9
CSc1nsc(SC)c1C(=O)NC(=O)Nc1cccnc1 | 0.695 | /
CCOC(=O)C1CCN(Cc2ccc(Cl)nc2)CC1 | 0.24 | -0.7
COc1ccc(/C=C/C(=O)Nc2ccc3c(c2)OCO3)cc1S(=O)(=O)N1CCCCC1 | / | 0.95
Cc1cc(C)c(S(=O)(=O)N2CCCC2=O)c(C)c1 | -0.155 | 0.55
CC(C)(C)OC(=O)N1CCCN(C(=O)c2cccs2)CC1 | 0.47 | 0
Cc1nn(CC(=O)N2CCCCC2)c(C)c1S(=O)(=O)NC(C)(C)C | / | 0.8
CCOC(=O)C(C#N)Cc1c(C)c(C)c(C)c(C)c1C (centres undefined) | -0.355 | 0.2
O=C(c1ccco1)N1CCC(N(CCc2ccccc2)Cc2ccccc2)CC1 | 0 | -1.5
O=S(=O)(c1ccccc1Br)N1CCN(c2cc(C(F)(F)F)ccn2)CC1 | 78.3 | /
COC(=O)C1=C(C)NC(=O)CC1c1ccc(C(C)C)cc1 (centres undefined) | -0.445 | -1.25
COC(=O)C1=CN2C(C=C1)C(C(=O)OC)(C(=O)OC)[C@@H](c1cccnc1)[C@@H]2C#N (some centres undefined) | 0.59 | -0.9
CCC(Sc1nc2ccccc2c2nc(CCn3cncc3C)nn12)C(=O)NC1CCCCC1 (centres undefined) | 0.285 | -1.45
CC(C(=O)O)N1CCCCC1 (centres undefined) | / | -0.3
CCOC(=O)C1=C(N)OC2=C(C(=O)CC(c3ccccc3)C2)C1c1cccc(Br)c1 (centres undefined) | -0.06 | /
O=C(CSc1nnc2c(n1)[nH]c1ccccc12)N(CCO)CCO | -0.27 | /
CCOC(=O)N1CCN(CC(O)COCc2ccc(Cl)cc2)CC1 (centres undefined) | 0.06 | 1.2
CN(CC(=O)N1CCN(Cc2ccccc2)CC1)S(=O)(=O)c1cnc[nH]1 | 0.015 | -1.15
O=C(c1ccc(-n2cccn2)cc1)N1CCCC1c1ccc2c(c1)OCCCO2 (centres undefined) | / | 2.15
CC1(C)C2CCC(C2)C1(C)NC(=S)NCC1CCCO1 (centres undefined) | 0.05 | -0.55
CC(NC(=O)Nc1ccccc1Br)(C(F)(F)F)C(F)(F)F | 0.435 | -0.55
OCc1cc(Cl)cc(Cl)c1 | 0.08 | 0.1
Cc1ccc(C(=O)NCCC2=CCCCC2)cc1 | 0.2 | -0.55
COC(=O)c1ccccc1NC(=O)CCc1ccc(OC)cc1 | 8.91 | -0.5
Cc1ccc(-n2c(=O)c3sccc3n(CC(=O)c3ccc(Br)cc3)c2=O)cc1F | -0.21 | 0.3
S=C(NCCN1CCCCC1)Nc1ccccc1 | / | -0.45
CSC(=NC(C)c1ccccc1)Nc1ccc(Oc2ccc(Cl)cc2)cc1 (centres undefined) | -0.335 | /
O=c1c2ccccc2c(-c2ccccc2)nn1-c1cc([N+](=O)[O-])ccc1N1CCN(CCO)CC1 | -1.37 | /
O=C(Nc1ccc(C23CC4CC(CC(C4)C2)C3)cc1)c1cccs1 | 1.36 | 0.6
CC(=O)O[C@]1(C(C)=O)CCC2C3C=C(C)C4=CC(=O)CCC4(C)C3CCC21C (some centres undefined) | / | -0.7
OC(CN1CCCCC1)Cn1c2c(c3ccccc31)CCCC2 (centres undefined) | -0.06 | 0
CC(CO)(CO)N=Cc1c(O)n(-c2ccc(Br)cc2)c(=O)[nH]c1=O | -0.325 | /

The list goes on.
structure | Ba CapD inh | AID504770
Fc1ccc(Sc2nc(-c3ccccc3)nnc2-c2ccccc2)cc1 | -0.38 | /
Cc1ccc(C(=O)OCCN(Cc2ccccc2)C2=NS(=O)(=O)c3ccccc32)cc1 | -0.16 | /
NC(=O)C[n+]1ccc(C(N)=O)cc1 | 0.35 | -0.3
O=[N+]([O-])c1ccc(Cl)c(S(=O)(=O)Nc2cc(Cl)c3oc4c(c3c2)CCCC4)c1 | 0.105 | /
O=C(O)c1ccc2c(c1)C(=O)N(CCC1=CCCCC1)C2=O | -0.195 | 0.65
O=C(CNc1cccc(C(F)(F)F)c1)NN=C1CCCCC1 | / | -0.15
COc1ccc(C2(c3ccc(OC)cc3)C=Cc3c4c(c5ccccc5c3O2)-c2ccccc2C4=O)cc1 | -0.21 | /
NS(=O)(=O)c1ccc(CCNc2ncnc3c2c(-c2ccccc2)cn3-c2ccc(Cl)cc2)cc1 | 0.275 | /
Cn1c2c(c(=O)n(C)c1=O)C(c1cc3c(cc1Br)OCO3)CC(=O)N2 (centres undefined) | -0.41 | 0.25
Cc1c(CNC(=O)c2cccs2)c(-n2cccc2)n(Cc2ccccc2)c1C | -0.1 | /
CCOC(=O)c1c(C)nsc1Nc1cc(C)ccc1C | 1.15 | 0.15
CCN(CCOC(=O)NCc1csc2ccccc12)c1ccc(N=Nc2ccc([N+](=O)[O-])cc2)cc1 | -1.12 | /
O=C(c1cc2ccccc2o1)N1CCCC1c1nc2ccccc2s1 (centres undefined) | / | -1
CCN(CC)CCNC(=O)c1ccc(N)cc1 | 0&-0.055&-0.07 | -0.15
CCOC(=O)c1cccc(OCC(O)CN(C)Cc2ccc(C)o2)c1 (centres undefined) | / | -0.15
O=C(NCCc1ccccc1)c1ccc(CCN2CCCC2)nc1 | -0.66 | /
Cc1cc(NC(=O)COC(=O)/C=C/c2ccccc2Cl)no1 | / | -0.1
O=C(NN=C1CCCCC1)c1n[nH]c2c1CCC2 | / | 1.15
Cc1noc(C)c1C(=O)N1CCC(C(O)(c2ccccc2)c2ccccc2)CC1 | -0.04 | -0.55
c1csc(CNc2ncnc3nc[nH]c23)c1 | -0.425 | -0.1
O=c1[nH]ccn(-c2cccc(C(F)(F)F)c2)c1=O | -0.73 | /
COC(=O)c1cc2oc3ccccc3c2n1CC(=O)Nc1ccccc1OC | 1.04 | 0.9
Cn1c2c(c(=O)[nH]c1=O)C(NC(=O)c1ccccc1)(C(F)(F)F)C(=O)N2 (centres undefined) | 0.285 | -0.1
COc1cc(/C=C/C(=O)Nc2nnc(C)s2)cc(OC)c1OC | 0.805 | 1.6
COc1ncccc1C(=O)O | 0.285 | /
Cc1oc(C(C)(C)C)cc1C(=O)N1CCCC1C(=O)O (centres undefined) | 0.345 | 0.9
Cc1nnc(Sc2cnn(-c3ccccc3)c(=O)c2Cl)n1C | / | -0.05
CNC(=O)NC(=O)C(Sc1cccc[n+]1[O-])c1ccccc1 (centres undefined) | / | -0.65
Cc1cc(NC(=O)c2cnn3c(C(F)(F)F)cc(-c4ccccc4)nc23)no1 | 0.02 | -0.3
c1cncc(CNCCN2CCOCC2)c1 | / | -0.2
N#C/C(=N/Nc1ccc2c(c1)OCO2)C(=O)N1CCCC1 | -2.05 | -0.15
N=c1c2c3c(sc2ncn1CCCO)CCCCC3 | -0.025 | -0.3
Cc1ncc(S(=O)(=O)c2cccc(C(F)(F)F)c2)c(-c2ccncc2)n1 | 0.375 | /
COc1ccc(CC(=O)NC(=S)Nc2cccnc2Cl)cc1 | -0.09 | 0.1
Nc1ncn(C2O[C@H](CO)[C@H](O)[C@@H]2O)c(=O)n1 (some centres undefined) | -0.05 | /
CS(=O)(=O)N1CCN(c2ccccn2)CC1 | 6.87 | -0.1
CC(C)(C)C(=O)n1cc(-c2ccnc3ccccc23)c(-c2ccncc2)n1 | 0.89 | /
Cn1c(=O)[nH]c(=O)c2c1ncn2CC(O)CO (centres undefined) | 0.185 | 0
COc1ccccc1-c1c(C)nn2c(SCC(=O)NCc3ccc4c(c3)OCO4)cc(C)nc12 | -0.155 | -2.25
O=C(Nc1nc(=O)c2ccccc2s1)c1ccccc1 | 1.65 | -0.05
N#Cc1cccc(NC(=O)COc2ccccc2C(N)=O)c1 | / | -0.15
O=C(CSc1ncnc2c1oc1ccccc12)Nc1ccccc1 | 0.2 | -0.7
Cc1ccc(C(=O)O)cc1NCc1ccccn1 | / | -0.3
COc1c(Cl)cc(Cl)c(OC)c1C(N)=O | 0.21 | /
CC(=O)N1CN(C2CCS(=O)(=O)C2)Cc2c1sc1c2CCCC1 (centres undefined) | 0.14 | -0.15
O=C(NC(Cc1c[nH]c2ccccc12)C(=O)Nc1ccc(Br)cc1)OCc1ccccc1 (centres undefined) | -0.235 | /
CC(C)Oc1ccc(CN2CCN(CCOC(=O)NCc3csc4ccccc34)CC2)cc1 | 0.115 | /
CCOC(=O)c1cc(Sc2n[nH]c(-c3ccccc3)n2)cc(C(=O)OCC)n1 | -0.66 | -0.15
N#Cc1ccc(CSc2cnc3ccccc3n2)cc1 | / | 0.25
FC(F)(F)c1cccc(-c2[nH]ncc2-c2cnc3ccccc3n2)c1 | -0.63 | /
CC(=O)Nc1cc([N+](=O)[O-])ccc1Sc1ccccc1N | -0.46 | /
Nn1c(SCC(=O)Nc2cccc(Br)c2)nnc1C(F)(F)F | / | -0.8
O=C(Nc1c[nH]c(=O)[nH]c1=O)C(c1ccccc1)c1ccccc1 | -0.375 | -0.1
COc1ccccc1-c1c(C(F)(F)F)oc2cc(OC(=O)c3ccco3)ccc2c1=O | -1 | /
O=C(NC1CC1)c1cc(Cl)cc(Cl)c1 | -0.06 | -0.15
O=C(c1ccco1)N1CCN(Cc2ccccc2)CC1 | 0.69&0.13 | 0.15&0.2

Reformatted as labelled records: entries from further up
O=C(c1ccco1)N1CCN(Cc2ccccc2)CC1
  Ba CapD inh = 0.69&0.13; AID504770 = 0.15&0.2
N#Cc1ccc(CSc2cnc3ccccc3n2)cc1
  Ba CapD inh = /; AID504770 = 0.25
Nn1c(SCC(=O)Nc2cccc(Br)c2)nnc1C(F)(F)F
  Ba CapD inh = /; AID504770 = -0.8
COc1ccccc1-c1c(C(F)(F)F)oc2cc(OC(=O)c3ccco3)ccc2c1=O
  Ba CapD inh = -1; AID504770 = /

More compounds.
structure | Ba CapD inh | AID504770
COC(=O)C1CCc2ccccc2N1 (centres undefined) | 2.08 | 2.1
O=C(Nc1ccc(N2CCN(C(=O)c3ccco3)CC2)cc1)c1ccccc1 | / | 0.95
Cn1[nH]c(=O)cc1C(=O)NN | 0.13 | /
CC(=O)N1CCC(N(C2CC2)S(=O)(=O)c2cccc(C(F)(F)F)c2)CC1 | -0.66 | /
Cc1ccc(N2CCN(C(=O)OCc3cc4c(cc3[N+](=O)[O-])OCO4)CC2C)cc1 (centres undefined) | 0.695 | /
CCOc1ccc(NC(=O)c2sc(=S)n(-c3ccc(Cl)c(C)c3)c2N)cc1 | -0.285 | /
O=C(NC1CCCCC1)C(C(=O)c1ccccc1)n1ccccc1=O (centres undefined) | -1.26 | -0.75
COc1ccc(OC)c(S(=O)(=O)NCc2nc(N)n(S(=O)(=O)c3cc(OC)ccc3OC)n2)c1 | -0.665 | 0.2
Cc1ccc(NCc2c(C#N)c3ccccc3n2C)cc1 | -0.63 | -0.5
Cn1/c(=N/N=C/c2ccc(OCC(N)=O)cc2)sc2ccccc21 | -0.845 | 0.65

Copied from the list.
Reading of Cn1/c(=N/N=C/c2ccc(OCC(N)=O)cc2)sc2ccccc21 under AID504770: 0.65
Reading of COc1ccc(OC)c(S(=O)(=O)NCc2nc(N)n(S(=O)(=O)c3cc(OC)ccc3OC)n2)c1 under AID504770: 0.2

Bioassay records (PubChem)
